MT1-MMP promoter – MT1-MMP gene expression reporter suppression – cell-based, luciferase reporter, luminescence (AID 618). MT1-MMP promoter luciferase reporter cells, luminescence. calls from a first round at 10 µM; hits with a dose series show EC50 in µM. 87,000 compounds, 0.62% hits;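 active = over half of the reporter light lost at 10 µM or EC50 under 50 µM; inactive = the rest and hits that failed the dose series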;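 note: actives suppress MT1-MMP promoter-driven transcription so potencies describe inhibitors; HT1080 fibrosarcoma cells; overnight exposure; toxic or luciferase-blocking compounds were not removed from the actives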
WNV protease inh – blocks West Nile virus NS2B-NS3 protease activity | 65,000 compounds, 0.18% hits | WNV NS2B-NS3 protease, fluorogenic substrate Ex360/Em465; stronger effect = lower value | z-score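 (tested at a level between 10 and 100 µM)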 | P06935;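 active = z-score at -3 or under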;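 note: score is relative to mean and spread of the compound wells of a plate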
Target sequence (P06935 1371-1501 limits assumed): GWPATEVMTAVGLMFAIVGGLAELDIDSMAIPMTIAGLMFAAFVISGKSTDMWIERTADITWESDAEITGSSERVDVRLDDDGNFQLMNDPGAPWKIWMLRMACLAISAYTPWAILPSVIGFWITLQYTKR
Target sequence (P06935 1502-1679 limits assumed): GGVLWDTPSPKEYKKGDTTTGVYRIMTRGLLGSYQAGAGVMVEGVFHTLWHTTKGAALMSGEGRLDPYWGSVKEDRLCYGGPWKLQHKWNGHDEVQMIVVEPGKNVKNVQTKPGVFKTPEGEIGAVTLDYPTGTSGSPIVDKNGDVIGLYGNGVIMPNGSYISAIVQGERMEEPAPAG
Hsc70 ATP site – Hsc70 inhibitors, probe displacement, primary screen, biochemical, fluorescence polarization (AID 568). Hsc70 fluorescence polarization, probe displacement; higher % means a stronger effect; strong numbers were not always called active. displacement, % at 20 µM, or IC50 in µM where a hit was titrated. 83,000 tested, under 10 active;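 active = displacement above 50% without optical interference and an IC50 on retest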;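 note: ATPase domain with a fluorescein-tagged ATP probe; 0% = vehicle and 100% = excess ADP; read after one hour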
Numbers without * were called inactive; i = inactive; . = no result given.

entry | structure | Hsc70 ATP site | MT1-MMP promoter | WNV protease inh
1 | COc1ccc(Cl)cc1N1CCN(CCNC(=O)Nc2ccccc2C)CC1 | 7.4% | i | 1.7
2 | CCOc1ccc(C2C(C(=O)OC)=CN(CCOC)C=C2C(=O)OC)cc1 | -4.9% | i | 2.7
3 | CCCCN(CCCNC(=O)C1CCCN(S(=O)(=O)CC)C1)Cc1ccccc1 (stereo not given) | -3.4% | i | -0.33
4 | Cc1oc(-c2cccc(Cl)c2)nc1CN1CCC(C(=O)N2CCN(c3ccccn3)CC2)CC1 | -2.9% | i | -0.2
5 | CCCCCn1c(=O)c(C(=O)OCC)c(O)c2ccccc21 | 1.0% | i | -0.66
6 | CCOC(=O)C(C(=O)Nc1nc2ccccc2s1)C1CCCCC1 (stereo not given) | 2.7% | i | .
7 | O=C(CN1C(=O)c2ccccc2C1=O)N1CCN(c2nnc(-c3ccccc3)c3ccccc23)CC1 | 2.2% | i | -1.3
8 | O=C(c1ccco1)N1CCN(c2ncnc3c(-c4ccccc4)nsc23)CC1 | -1.3% | i | -1.5
9 | CCN(CC)c1ccc2cc(C(=O)Nc3ccc(-n4cnnn4)c(OC)c3)c(=O)oc2c1 | -79% | i | 0.93
10 | COC(=O)c1[nH]c2ccc(C)cc2c1NC(=O)C(C)N1CCN(C2CCCCC2)CC1 (stereo not given) | 3.6% | i | -0.92
11 | CCC1=NC(c2ccc(OC)cc2)N(O)C1(C)C (stereo not given) | -0.8% | i | .
12 | CC(=O)Nc1ccc(S(=O)(=O)N2CCCN(S(=O)(=O)c3ccc(NC(C)=O)cc3)CC2)cc1 | 1.4% | i | -0.17
13 | COc1cc(C(=O)NCCC(=O)NCCCN2CCCCC2C)cc(OC)c1OC (stereo not given) | -6.0% | i | -0.67
14 | Cc1oc2cc3c(C(=O)N4CCN(c5ccccc5)CC4)c(C)oc3cc2c1C(=O)N1CCN(c2ccccc2)CC1 | 1.5% | i | .
15 | O=C(CN(Cc1cccs1)C(=O)CSc1nnc(COc2ccccc2)o1)NC1CCCCC1 | -3.5% | i | .
16 | CCC(=O)Nc1nc(=S)ss1 | 1.2% | i | .
17 | O=C(NCCCN1CCN(Cc2ccccc2)CC1)c1nnc(Cc2c(F)cccc2Cl)o1 | -3.3% | i | -0.29
18 | COC(=O)C1=CNC=C(C(=O)OC)C1c1ccc(Cl)cc1 | 2.0% | i | 3
19 | CCC(C)Cn1c(S(=O)(=O)O)nc2ccccc21 (stereo not given) | 0.7% | i | -1.4
20 | CCOC(=O)c1ccc(N2C(=O)c3n[nH]c(C)c3C2c2ccc(OC)cc2OC)cc1 (stereo not given) | -6.7% | i | -0.15
21 | CC(OC(=O)CN(C)S(=O)(=O)c1ccc(Cl)cc1)C(=O)Nc1ncc(Cl)cc1Cl (stereo not given) | 3.7% | i | .
22 | O=S(=O)(c1ccc(OCC(O)CN2CCC(Cc3ccccc3)CC2)cc1)N1CCOCC1 (stereo not given) | 1.9% | i | -0.23
23 | COc1ccc(Cl)cc1N1CC(c2nc3ccccc3[nH]2)CC1=O (stereo not given) | 9.0% | i | -0.34
24 | CC(C)OCCCNC(=O)c1ccncc1 | 1.3% | i | 1.7
25 | Clc1ccc(OCCCc2nc(-c3ccncc3)no2)c(Cl)c1 | -3.0% | i | .
26 | COc1ccc(Br)cc1C1CC(=O)N2CN(Cc3ccccc3)CSC2=C1C#N (stereo not given) | 0.4% | i | 0.97
27 | O=C(Nn1cnnc1)c1ccc(F)c(S(=O)(=O)N2CCCCC2)c1 | 1.6% | i | -0.7
28 | CC(=O)C(CC(=O)N1CCCc2ccccc21)C(=O)Nc1ccc(F)cc1 (stereo not given) | -2.3% | i | .
29 | Cc1ccccc1-c1nn2c(-c3ccccc3)nnc2s1 | -4.6% | i | 0.33
30 | CCCNC(=O)c1ccccc1NC(=O)c1ccccc1N(C)S(C)(=O)=O | 2.6% | i | .

Part of the list above, with two lines to a compound.
Below each SMILES: Hsc70 ATP site | MT1-MMP promoter | WNV protease inh
25) Clc1ccc(OCCCc2nc(-c3ccncc3)no2)c(Cl)c1
  -3.0% | i | .
3) CCCCN(CCCNC(=O)C1CCCN(S(=O)(=O)CC)C1)Cc1ccccc1 (stereo not given)
  -3.4% | i | -0.33
21) CC(OC(=O)CN(C)S(=O)(=O)c1ccc(Cl)cc1)C(=O)Nc1ncc(Cl)cc1Cl (stereo not given)
  3.7% | i | .
22) O=S(=O)(c1ccc(OCC(O)CN2CCC(Cc3ccccc3)CC2)cc1)N1CCOCC1 (stereo not given)
  1.9% | i | -0.23
17) O=C(NCCCN1CCN(Cc2ccccc2)CC1)c1nnc(Cc2c(F)cccc2Cl)o1
  -3.3% | i | -0.29
8) O=C(c1ccco1)N1CCN(c2ncnc3c(-c4ccccc4)nsc23)CC1
  -1.3% | i | -1.5
11) CCC1=NC(c2ccc(OC)cc2)N(O)C1(C)C (stereo not given)
  -0.8% | i | .

Additional entries follow.
entry | structure | Hsc70 ATP site | MT1-MMP promoter | WNV protease inh
31 | CCCC(=O)C1=C(SCC)CC(C)(C)C(C(=O)OC)C1=O (stereo not given) | -7.2% | i | -0.91
32 | Cc1cccc(-n2c(SCC(=O)Nc3ccc4c(c3)OCO4)nnc2-c2ccoc2C)c1 | -6.7% | i | -0.2
33 | CCC(C(=O)NCc1ccco1)N(C(=O)CNS(=O)(=O)c1ccccc1)C1CCCCC1 (stereo not given) | -1.5% | i | .
34 | CCCOc1ccc(-c2nc(=S)[nH][nH]2)cc1 | 0.6% | i | .
35 | Cc1ccc(SCc2[nH]nc3c2C(C(C)C)C(C#N)=C(N)O3)cc1 (stereo not given) | 2.7% | i | .
36 | Cc1ccc(S(=O)(=O)N2CCC(C(=O)N[C@@H](Cc3ccccc3)C(=O)O)CC2)cc1 | -2.9% | i | 1.5
37 | Cc1ccc(S(=O)(=O)c2c(N)n(Cc3ccco3)c3nc4ccccc4nc23)cc1C | 0.7% | i | .
38 | Cc1ccc(S(=O)(=O)c2nc(C)oc2NCc2ccccc2)cc1 | 1.0% | i | -1.3
39 | COc1ccc(/C=C2/N=C3CCCCCN3C2=O)cc1OC | -2.2% | i | .
40 | Cc1ccnc(NC(=O)CS(=O)(=O)Cc2ccccc2)c1 | -4.2% | i | .
41 | CC(/C=C\c1cccnc1)=C/C(=O)O | 4.4% | i | .
42 | C=CCn1c(SCC(=O)c2cccs2)nnc1-c1cccc(OC)c1 | -1.8% | i | -0.77
43 | O=C(COc1ccccc1Br)NCc1ccco1 | 2.7% | i | -0.92
44 | O=C(Nc1cnccn1)c1csc2ccccc12 | -2.3% | i | -0.16
45 | O=C(OCC(=O)c1ccc[nH]1)c1ccc(S(=O)(=O)N2CCCCC2)cc1 | 1.7% | i | -1.3
46 | Cc1nnc(SCC(=O)c2cc(C)n(C3CC3)c2C)s1 | 3.6% | i | .
47 | CCOC(=O)C1CCN(C(=O)CSc2nnc(-c3ccco3)n2-c2ccccc2)CC1 | 0.2% | i | 1.1
48 | Cc1cccn2cc(CNC(=O)C3CCCCC3)nc12 | -2.6% | i | 0.57
49 | C[n+]1cc(-c2ccccc2)n2c1CCCCC2 | -8.3% | i | .
50 | CCCC(=O)Nc1cc(Cl)ccc1N1CCN(C(=O)CC)CC1 | -0.3% | i | -0.52
51 | CC(Oc1ccc2oc(-c3ccccc3)c(C(=O)O)c2c1)C(=O)O (stereo not given) | 1.1% | i | -0.37
52 | COCCn1c(-c2ccccc2)nc(=S)c2c1CC(C)(C)OC2 | -2.6% | i | -0.05
53 | CCOc1ccc(OCC(=O)c2c(O)c3ccccc3oc2=O)cc1 | 5.3% | i | 0.84
54 | CC(C)N1C(=O)CCC1C(=O)N1CCCc2ccccc21 (stereo not given) | 2.6% | i | -1.5
55 | O=C(COC(=O)c1ccccn1)c1ccc(Br)cc1 | 1.4% | i | 0.79
56 | COc1ccc(N=C2SC(C(=O)Nc3ccc4c(c3)OCO4)CC(=O)N2C)cc1 (stereo not given) | -2.8% | i | 0.14
57 | COc1ccc(-c2noc(-c3cc(C)cc(C)c3)n2)cc1OC | 1.0% | i | -0.4
58 | O=C(N1CCN(Cc2ccc3c(c2)OCO3)CC1)C12CC3CC(CC(C3)C1)C2 | -0.3% | i | 0.71
59 | O=C(CCN1CCN(c2ccccc2)CC1)Nc1ccccc1F | -1.1% | i | -0.44
60 | CC(C)(C)c1cn(-c2ccccc2)c(=S)[nH]1 | -3.3% | i | -0.42

New compounds follow
entry | structure | Hsc70 ATP site | MT1-MMP promoter | WNV protease inh
61 | O=C(NCCN1CCN(c2cccc(Cl)c2)CC1)C1CCCN(S(=O)(=O)c2cnc[nH]2)C1 (stereo not given) | 3.0% | i | 0.13
62 | Brc1ccc(C2=Nn3c(nnc3-c3n[nH]c4c3CCC4)SC2)cc1 | -0.1% | i | 0.27
63 | O=C(N/N=C/C=C/c1ccccc1)c1ccc(Br)cc1 | -6.6% | i | .
64 | CCOC(=O)c1cccc(Nc2ncnc3ccccc23)c1 | 5.2% | i | .
65 | Cc1ccc(SCc2cc(=O)[nH]c(N3CCN(C)CC3)n2)cc1 | 0.6% | i | .
66 | CC1CN(S(=O)(=O)c2ccc(-c3nc4ccccc4s3)cc2)CC(C)O1 (stereo not given) | 8.9% | i | -0.0095
67 | CCCC(=O)Nc1nc2c(c(=O)[nH]1)CCCC2 | -0.3% | i | .
68 | c1csc(CNCCCN2CCOCC2)c1 | 7.1% | i | .
69 | On1c2c(c3c4nonc4ccc31)CCCC2 | 3.0% | i | .
70 | COc1ccc(NC(=O)NCc2cccn2C)c(OC)c1 | 3.0% | i | 0.28
71 | O=C(Nn1c(-c2ccccc2)nc2ccccc2c1=O)C1CCC1 | 3.6% | i | -1.3
72 | C=CCOc1ccccc1CN1CCSCC1 | -4.0% | i | 0.61
73 | CCC(=O)Nc1cc(-c2nn(CC(=O)N3CCCCC3)c(=O)c3ccccc23)ccc1N1CCOCC1 | 8.3% | i | .
74 | N/C(=N/O)c1nc(N2CCCC2)nc(N(c2ccccc2)c2ccccc2)n1 | -0.1% | i | -0.15
75 | N#CNC1=NCN(CCc2ccccc2)CN1 | -2.7% | i | 0.18
76 | Cc1ccc(NC(=O)Cn2nnc(-c3ccccc3NC(=O)c3cccs3)n2)cc1 | 1.4% | i | .
77 | COc1ccc(N2CCN(CCNC(=O)C3CC(=O)N(C4CCCC4)C3)CC2)cc1 (stereo not given) | 1.1% | i | 0.3
78 | O=S(=O)(NCc1ccc(Cl)cc1)c1cnc[nH]1 | -1.4% | i | 0.48
79 | N#C/C(C(=O)N1CCOCC1)=c1\s/c(=C/c2ccncc2)c(=O)n1-c1ccccc1 | -5.1% | i | 1.6
80 | CCOC(=O)c1sc2nc3c(cc2c1N)COC(C(C)C)C3 (stereo not given) | 5.3% | 1.6µM* | .
81 | COCCNC(=O)c1cc2c(=O)n3cccc(C)c3nc2n1C | -2.2% | i | 1.2
82 | Cc1nc(N2CCN(Cc3ccccc3)CC2)nc2c1C(=O)CC(c1ccco1)C2 (stereo not given) | -6.8% | i | -0.2
83 | COc1ccc(N2CC(C(=O)Nc3ccc(S(=O)(=O)Nc4nc(C)cc(C)n4)cc3)CC2=O)cc1 (stereo not given) | 1.9% | i | -0.58
84 | CCc1ccccc1NC(=O)CSc1nnc([C@@H](NC(=O)OC(C)(C)C)C(C)CC)o1 (stereo not given in full) | -5.3% | i | 0.33
85 | COc1ccc(-c2cc(C(=O)N(C)Cc3ccccc3)no2)cc1OC | -0.5% | i | 0.34
86 | COc1ccc(CNC(=O)c2cccc(N(C)C)c2)cc1 | -5.1% | i | -1.2
87 | O=c1nc2n(c3ncccc13)CCC2 | -2.3% | i | -0.84
88 | Cc1cc(C(=O)Nc2sc3c(c2C#N)CCC(C)C3)cs1 (stereo not given) | -7.1% | i | 0.32
89 | Nc1nnc(-c2ccco2)s1 | 0.9% | i | -0.48
90 | COc1cc(-c2nnc(SC/C=C/c3ccccc3)n2N)cc(OC)c1OC | 2.7% | i | .

Next records follow:
entry | structure | Hsc70 ATP site | MT1-MMP promoter | WNV protease inh
91 | CCCS(=O)(=O)N1CCCC(C(=O)NCCCN(CC)c2cccc(C)c2)C1 (stereo not given) | -6.6% | i | -0.71
92 | COc1ccc(/C(O)=C2/C(=O)C(=O)N(Cc3cccnc3)C2c2ccccn2)cc1 (stereo not given) | 3.6% | i | -0.47
93 | Cc1cc(NC(=O)C23CCC(C)(C(=O)O2)C3(C)C)no1 (stereo not given) | -3.7% | i | -1.4
94 | C=CCn1c(-c2ccccc2)n[nH]c1=S | -2.1% | i | -0.00091
95 | CCCc1nn(C)c2c1C(c1ccncc1)C(C#N)=C(N)O2 (stereo not given) | -1.3% | i | 0.84
96 | O=C(Nc1ccc(CN2CCCCC2)cc1)c1ccc(Br)o1 | 5.6% | i | -0.33
97 | O=C(c1ccccc1)c1c[nH]c2cc3c(cc2c1=O)OCO3 | -0.3% | i | -0.91
98 | CCCCc1nc(NCc2ccccc2)c(C#N)c2c1COC(C)(C)C2 | 3.6% | i | .
99 | COc1ccc(-c2n[nH]c(C)c2-c2ccc(Cl)cc2)c(O)c1OC | -3.7% | i | 0.29
100 | Cc1ccc(CNC(=O)c2cnc(-c3ccccn3)nc2C(F)(F)F)cc1 | 1.5% | i | .
101 | Cc1ccc(C)c(N2CCN(C(=O)CCCCn3c(=O)[nH]c4ccccc4c3=O)CC2)c1 | 0.7% | i | -1
102 | CC1CN(S(=O)(=O)c2cccc(-c3cn4cccnc4n3)c2)CC(C)O1 (stereo not given) | -6.3% | i | 0.61
103 | Cc1onc(-c2ccccc2)c1C(=O)NCCc1c[nH]c2ccccc12 | -7.0% | i | 0.79

Source: PubChem

Not all compounds are listed. The share of hits here may be higher or lower than overall.
